# Screens deposited in PubChem by National Center for Advancing Translational Sciences (NCATS).
# LASV entry inh: blocks Lassa virus binding to or entry into cells. Lassa virus pseudotype entry inhibition, cell reporter; control for the full effect not named in the record. Potency, µM (series often up to 37.9 µM), without a hit: at the top dose activity change, negative = inhibition, hits mostly inhibitors. 1.2% of 300,000 active. AID 540256; active means well fitted inhibition curve with a large enough effect; inconclusive means small, poorly fitted or top-dose-only effect, or effect the other way; inactive means flat fitted curve, though single readings scatter; tested in HEK293 cells; note: % is set by controls: 0 for no effect and ±100 for the full control effect; nearly all actives have a fitted effect of over 50% in size; luciferase read-out
# SARS PLP yeast: blocks SARS-CoV papain-like protease in a yeast assay. S. cerevisiae expressing SARS-CoV PLpro, growth rescue; control for the full effect not named in the record. Potency, µM (titrated, usually from 32.9 µM), for the others: at the top dose activity, positive = growth rescue. 0.19% of 330,000 active. AID 485353; note: 0% is about no effect; nearly all actives have a fitted effect of over 55% in size; growth read by luminescence after 48 h
# NS1 function inh: blocks influenza NS1 protein function | 0.4% of 270,000 active | S. cerevisiae slowed by influenza A NS1, growth recovery by OD600 | AID 2326 | Potency, µM (top dose mostly 46.1 µM), for the others: at the highest dose activity, positive = more growth; note: actives are rising curves; nearly all actives have a fitted effect of over 50% in size
#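 Read-out: OD600 growth recovery of NS1-expressing budding yeast. Cells grown overnight at 30C in -URA glucose medium, washed, resuspended and diluted 1:100 in 2% galactose assay medium, pH 6.0. Same strain lacking NS1 served as positive control.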
# MARV entry inh: inhibitors of Marburg virus binding or cell entry; Marburg virus pseudotyped entry inhibition, cell reporter; control for the full effect not named in the record; about a third of the inactives were read at about 46 µM; Potency, µM (titrated, usually from 37.8 µM), without a hit: top-dose activity change, negative = inhibition, most hits filed as inhibitors; 1.8% of 300,000 active; active = well fitted inhibition curve with a large enough effect; inconclusive = small, poorly fitted or top-dose-only effect, or effect the other way; inactive = flat fitted curve, though single readings scatter; tested in HEK293 cells; about a fifth of its hits are not listed in these tables; note: % is set by controls: 0 for no effect and ±100 for the full control effect; luciferase read-out
# * = called active by the depositor; ? = inconclusive; . = no result given; & = joins results of further samples; [ ] = dose if it differs, or a comment. Unless noted, calls come from the whole dose curve; as a rule, active means well fitted rising curve with a large enough effect; inconclusive means small, poorly fitted or top-dose-only effect; inactive means no such curve, though single readings can be large or run the other way. Potency is the fitted concentration of half-maximal effect.
nr	smiles	LASV entry inh	SARS PLP yeast	NS1 function inh	MARV entry inh
1	Cc1nc(C)c(/C(O)=C/c2nc3ccc([N+](=O)[O-])cc3oc2=O)o1	.	-1%	.	6%
2	CCN1C(=NCc2cc(OC)c(OC)c(OC)c2)N[C@@H](c2ccccc2)[C@H](C(=O)OC)[C@H]1C	.	0%&17%	?	?
3	COc1cc2c(cc1OC)C1O[C@](c3ccsc3)(C2)Oc2cc(-c3ccccc3)oc(=O)c21	.	7%[6.58 µM]	13%	?
4	CCCC[C@]12Cc3cc(OC)c(OC)cc3C(O1)c1c(cc(-c3ccccc3)oc1=O)O2	.	-3%[6.58 µM]	18%	-25%[14.2 µM]
5	O=C(NC(=O)c1ccc(Cl)cc1)Nc1ccc(-c2cnco2)cc1	.	-1%	2%	2%
6	CCOc1ccc(C(=O)N/N=C/c2c(C)[nH]c(=O)[nH]c2=O)cc1	.	0%	-4%	-7%
7	COc1ccc([C@]23Cc4cc(OC)c(OC)cc4C(O2)c2c(cc(C)oc2=O)O3)cc1	.	1%[6.58 µM]	14%	?
8	CCOC(=O)CCN1C(=O)[C@@H]2[C@H]3[C@H](O)[C@H](O)CC(=NNC(=O)OCc4ccc(OC)cc4)[C@H]3CC[C@H]2C1=O	0.17µM*	.	.	22%[14.2 µM]
9	CC12C=C(C=Cc3ccc(Br)cc3)C(C)(C1)[C@H](c1ccc(Br)cc1)CC2=O (stereo partly drawn)	?	.	.	-26%[14.2 µM]
10	NC[C@H]1O[C@@H](n2cnc3c(N)ncnc32)[C@H](O)[C@@H]1O	?	.	.	?
11	O=C1c2ccccc2C(=O)c2c(NCCc3ccc(O)cc3)ccc(NCCc3ccc(O)cc3)c21	5.2µM*	.	.	21µM*
12	COc1cc(C(NC(=O)C(F)(F)F)c2cc3ccccc3o2)cc(OC)c1OC (stereo not drawn)	?	.	.	5%&-4%[14.2 µM]
13	O=C(CCCCCN1CCN(c2ccccc2-c2ccccc2)CC1)NC1CCCc2ccccc21 (stereo not drawn)	?	.	.	?
14	COc1cccc2c1[C@H](C=Cc1ccccc1)[C@@H]([C@H](O)CO)OC2	-31%[14.3 µM]	.	.	-11%[14.2 µM]
15	COC(=O)CC=C[C@@H](C)[C@@H](C=NO[C@H](C)CN1CCCc2nc(C)c(C)cc21)N[S+](=O)([O-])c1ccc(C)cc1	?	.	.	?
16	C[C@@H]1CC[C@H]2C(=O)N(Cc3cccc([N+](=O)[O-])c3)C[C@H](O)CN2[C@@H]1c1cccc(Br)c1	7%[14.3 µM]	.	.	-10%[14.2 µM]
17	COc1ccc(-c2nc3c(c4c2C[C@H](c2ccccc2)OC4)CN(S(=O)(=O)c2ccc(NC(C)=O)cc2)CC3)c(C)c1	?	.	.	-6%&-6%&-6%[14.2 µM]
18	COc1ccc([C@]23Cc4ccccc4[C@H](O2)c2c(c4ccc(OC)cc4oc2=O)O3)cc1	?	.	.	-10%[14.2 µM]
19	CC12C=C(C=Cc3ccc(Br)cc3)C(C)(C1)C(c1ccc(Br)cc1)CC2=O (stereo not drawn)	11%[14.3 µM]	.	.	-26%[14.2 µM]
20	OCC1O[C@H]([S-])[C@H](O)[C@@H](O)[C@@H]1O.[Au+] (stereo partly drawn)	?	.	.	?
21	CC(C)=CCN1C(=O)[C@]2(OCCC=C[C@H]2C)c2c(Br)cccc21	?	.	.	?
22	CSc1nc(N)c2ncn([C@@H]3O[C@H](COP(=O)(O)OP(=O)(O)O)C(O)[C@H]3O)c2n1 (stereo partly drawn)	24%	.	.	8%
23	CC(CCN1CCCCc2nc(C)c(C)cc21)=NOC[C@@H](O)[C@H]1O[C@@H]2OC(C)(C)O[C@H]2[C@@H]1O	?	.	.	18%[14.2 µM]
24	CCOC(=O)CN1C(=O)C2(CC(C)=C[C@@H](C)O2)c2c(Br)cccc21 (stereo partly drawn)	?	.	.	3%[14.2 µM]
25	CNCCc1cnc(CCC(c2ccccc2)c2ccccc2)[nH]1	?	.	.	5.8µM*
26	CCN1C(=NCCCOC(C)C)NC(c2ccccc2)C(C(=O)OC)=C1C (stereo not drawn)	?	.	.	-3%[14.2 µM]
27	COC(=O)C1=CO[C@@H](O)[C@@H]2C(CO)=CC[C@H]12	8%	.	.	19%
28	C=CCOC(=O)N[C@H](c1ccc(-c2ccccc2)cc1)[C@H](C)C=CCC(=O)OC	?	.	.	-4%[14.2 µM]
29	N[C@@H](Cn1ccc(=O)c(O)c1)C(=O)O	?	.	.	1%&1%
30	CCN1C(=NCCc2ccccn2)NC(c2cccc(C(F)(F)F)c2)C(C(=O)OC)=C1C (stereo not drawn)	?	.	.	-20%[14.2 µM]
31	COC(=O)C1=C(C)N(CCC(C)O)C(=O)N(C(C)=O)C1c1ccccc1 (stereo not drawn)	?	.	.	5%[14.2 µM]
32	OC(CCN1CCCCC1)(c1ccccc1)C1CC2C=CC1C2 (stereo not drawn)	?	.	.	6.5µM*
33	COCCN1C(=NCC(C)C)NC(c2ccccc2)C(C(=O)OC)=C1C (stereo not drawn)	?	.	.	29%[14.2 µM]
34	COc1ccc(-c2nc3c(c4c2C[C@H](c2ccccc2)OC4)CN(S(=O)(=O)c2ccc(C)cc2)CC3)c(C)c1	?	.	.	?
35	C[C@H]1Cc2c(COc3ccccc3)nc3c(c2CO1)CN(C(=O)NCc1ccco1)CC3	?	.	.	2%&2%[14.2 µM]
36	COC(=O)C1(C)C2CC(C)C(c3ccccc32)N1C(=O)C(F)(F)F (stereo not drawn)	?	.	.	-9%[14.2 µM]
37	CCOC(=O)CN1C(=O)[C@]2(O[C@H](COc3ccccc3)CC3=CCCC32)c2c(Br)cccc21 (stereo partly drawn)	?	.	.	5%[14.2 µM]
38	COc1ccc2c(c1)[C@@]1(OCCC=C[C@@H]1C)C(=O)N2Cc1ccc(F)cc1	?	.	.	28%[14.2 µM]
39	COC(=O)C1=C(C)N(Cc2ccccc2)C(=O)NC1c1ccccc1 (stereo not drawn)	-20%[14.3 µM]	.	.	?
40	Cc1cc2c(nc1C)CCCCN2C[C@H](C)ON=C1[C@H]2CCn3c(=O)n(-c4ccccc4)c(=O)n3[C@@H]2[C@H](O)[C@@H]2O[C@H]12	?	.	.	26%[14.2 µM]
41	C[C@@H]1CC[C@H]2C(=O)N3[C@@H](CC[C@@H](C)[C@@H]3c3ccc(-c4ccco4)cc3)C(=O)N2[C@@H]1c1ccc(-c2ccco2)cc1	?	.	.	-2%[14.2 µM]
42	COc1ccc(COC(=O)NN=C2C[C@@H](O)[C@@H](O)[C@@H]3[C@H]4C(=O)N(Cc5ccccc5)C(=O)[C@@H]4CC[C@@H]23)cc1	4.4µM*	.	.	-25%&-25%[14.2 µM]
43	COC1=C(C(=O)c2ccccc2)C(=O)[C@@]2(CC=C(C)C)CC(C#N)C[C@@]1(CC=C(C)C)C2=O (stereo partly drawn)	-36%[14.3 µM]	.	.	-16%[14.2 µM]
44	COc1ccc(CCn2nnnc2C2(c3ccc(C)cc3)CC2)cc1	-21%	.	.	-5%
45	C[C@@H]1O[C@@H](O[C@H]2C[C@@H](O)[C@]3(CO)[C@@H]4C(CC[C@]3(O)C2)[C@@]2(O)CC[C@H]([C@@H]3COC(=O)C3)[C@@]2(C)C[C@H]4O)[C@H](O)[C@H](O)[C@H]1O (stereo partly drawn)	2.3µM*	.	.	0.82µM*
46	CC(C)[C@@H]1CC[C@@H](C)C[C@@H]1P(=O)(c1ccccc1)c1ccccc1	8%	.	.	-30%
47	C[C@@H](O)[C@H]1C(=O)N2C(C(=O)O)=C(SCCN=CN)C[C@H]12	4%	.	.	21%&21%&21%
48	FC(F)(F)c1ccc(-c2nc(-c3ccccc3)oc2Nc2ccc3ccccc3c2)cc1	?	.	.	?
49	CCCCCCCCCCCCCCCCC(C(=O)O)C(O)(CC(=O)O)C(=O)O (stereo not drawn)	-1%	.	.	?
50	CC1=CC[C@@H](C)O[C@@]2(C1)C(=O)Nc1cccc(Br)c12	?	.	.	-15%&5%[14.2 µM]
51	COC(=O)C1=C(C)N(Cc2ccccc2)C(=NCCc2cccnc2)NC1c1ccc(Br)cc1 (stereo not drawn)	?	.	.	4%[14.2 µM]
52	CCOC(=O)NN=C1C[C@@H](O)[C@@H](O)[C@@H]2[C@H]3C(=O)N(C4CCCCC4)C(=O)[C@@H]3CC[C@H]12	?	.	.	20%[14.2 µM]
53	COC(=O)CC=C[C@@H](C)[C@@H](C=NOC[C@@H](O)[C@H]1O[C@@H]2OC(C)(C)O[C@H]2[C@@H]1O)OC	?	.	.	22%[14.2 µM]
54	COC(=O)C1=C[C@@H]([C@@H](C)[C@H](OC)c2ccccc2Br)[C@@H]2OCC[C@H]12	?	.	.	?
55	COC(=O)C1=C(C(=O)OC)[C@@H]2N(C)c3ccccc3[C@@]23CCC(=O)N(Cc2ccco2)C3=N1	?	.	.	?
56	C[C@@H]1CC[C@H]2C(=O)O[C@@H](COc3ccc(C(C)(C)C)cc3)CN2[C@H]1c1ccc(Br)cc1	-26%[14.3 µM]	.	.	?
57	C[C@H]1[C@@H](C(=O)N2CCCC2)CC(=O)C(=NOCc2ccccc2)C[C@H]1c1ccccc1	?	.	.	0%[14.2 µM]
58	COC(=O)N[C@@H](c1cccs1)C(C(C)=O)C(=O)OC (stereo partly drawn)	?	.	.	?
59	COc1ccc2c(c1)CO[C@H]([C@H](O)CO)[C@H]2C=Cc1ccccc1	?	.	.	-6%[14.2 µM]
60	COC(=O)C1=C(C(=O)OC)[C@@H]2N(CC=C(C)C)c3ccccc3[C@@]23CCC(=O)N(Cc2cccc(C(F)(F)F)c2)C3=N1	?	.	.	-28%[14.2 µM]

# (listing goes on)
nr	smiles	LASV entry inh	SARS PLP yeast	NS1 function inh	MARV entry inh
61	COc1ccc([C@]23Cc4cc(OC)c(OC)cc4[C@H](O2)c2c(cc(C)n(Cc4ccccc4)c2=O)O3)cc1	?	.	.	?
62	CC(CCN1CCCCc2nc(C)c(C)cc21)=NO[C@H](C)CN1CCCc2nc(C)c(C)cc21	?	.	.	?
63	COC(=O)N[C@H](C(C(=O)OC)=C(C)NCc1ccccc1)c1ccccc1	?	.	.	?
64	COc1ccc(COC(=O)NN=C2C[C@@H](O)[C@@H](O)[C@@H]3[C@H]4C(=O)N(c5cccc(Oc6ccccc6)c5)C(=O)[C@@H]4CC[C@H]23)cc1	?	.	.	9%[14.2 µM]
65	COC(=O)CC=C[C@@H](C)[C@@H](C=NOC[C@@H](C)[C@H](OCc1ccccc1)C(C)C)NS(=O)(=O)c1ccc(C)cc1	-4%[14.3 µM]	.	.	-14%[14.2 µM]
66	C[C@]12CC[C@@H]3c4ccc(OC(=O)N(CCCl)CCCl)cc4CC[C@H]3[C@@H]1CC[C@@H]2O	5%	.	.	?

# Exported in transposed form: part of the list above
(57) C[C@H]1[C@@H](C(=O)N2CCCC2)CC(=O)C(=NOCc2ccccc2)C[C@H]1c1ccccc1
(58) COC(=O)N[C@@H](c1cccs1)C(C(C)=O)C(=O)OC (stereo partly drawn)
(59) COc1ccc2c(c1)CO[C@H]([C@H](O)CO)[C@H]2C=Cc1ccccc1
(60) COC(=O)C1=C(C(=O)OC)[C@@H]2N(CC=C(C)C)c3ccccc3[C@@]23CCC(=O)N(Cc2cccc(C(F)(F)F)c2)C3=N1
(61) COc1ccc([C@]23Cc4cc(OC)c(OC)cc4[C@H](O2)c2c(cc(C)n(Cc4ccccc4)c2=O)O3)cc1
(62) CC(CCN1CCCCc2nc(C)c(C)cc21)=NO[C@H](C)CN1CCCc2nc(C)c(C)cc21
(63) COC(=O)N[C@H](C(C(=O)OC)=C(C)NCc1ccccc1)c1ccccc1
(64) COc1ccc(COC(=O)NN=C2C[C@@H](O)[C@@H](O)[C@@H]3[C@H]4C(=O)N(c5cccc(Oc6ccccc6)c5)C(=O)[C@@H]4CC[C@H]23)cc1

screen / no. | 57 | 58 | 59 | 60 | 61 | 62 | 63 | 64
LASV entry inh | ? | ? | ? | ? | ? | ? | ? | ?
SARS PLP yeast | . | . | . | . | . | . | . | .
NS1 function inh | . | . | . | . | . | . | . | .
MARV entry inh | 0%[14.2 µM] | ? | -6%[14.2 µM] | -28%[14.2 µM] | ? | ? | ? | 9%[14.2 µM]

(65) COC(=O)CC=C[C@@H](C)[C@@H](C=NOC[C@@H](C)[C@H](OCc1ccccc1)C(C)C)NS(=O)(=O)c1ccc(C)cc1
(66) C[C@]12CC[C@@H]3c4ccc(OC(=O)N(CCCl)CCCl)cc4CC[C@H]3[C@@H]1CC[C@@H]2O

screen / no. | 65 | 66
LASV entry inh | -4%[14.3 µM] | 5%
SARS PLP yeast | . | .
NS1 function inh | . | .
MARV entry inh | -14%[14.2 µM] | ?

# A portion of the library; the hit share may differ from the screen's.
